Compound activity deposited in PubChem BioAssay by National Center for Advancing Translational Sciences (NCATS).
RE007 growth inh: less growth of the S. pombe RE007 Vpr strain. S. pombe RE007 Vpr strain, BacTiter-Glo ATP luminescence, 24 h; control for the full effect not named in the record. Potency, µM (top dose mostly 92.2 µM), inactives show top-dose activity change, negative = less growth. actives 0.21% (n = 360,000); active = well fitted falling curve with a large enough effect; inconclusive = small, poorly fitted or top-dose-only effect; inactive = no such curve, though single readings can be large or run the other way;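 also: % is scaled to controls: 0 for no effect and ±100 for the full control effect; nearly all actives have a fitted effect of over 50% in size; the assay follows cell death caused by Vpr and the record does not say whether a fall means rescue or toxicity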
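Fission yeast strain RE007, carrying one chromosomally integrated HIV-1 vpr copy, was seeded at OD 0.01 in PMG+AL medium with 23 nL pinned compound. After 24 h at 30 °C and 99% humidity, viability was read by BacTiter-Glo luminescence.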
Cruzain Triton: inhibitors of Trypanosoma cruzi cruzain with detergent | purified cruzain, Z-FR-AMC fluorescence, 0.01% Triton | actives 0.43% (n = 200,000) | Potency, µM, without a hit: max response, negative = inhibition, hits mostly inhibitors;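 also: plate controls were neutral wells for no effect and buffer without enzyme for full effect; nearly all actives have a fitted effect of over 40% in size; top concentration of the series not given in the record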
Target sequence (P25779 123-467 limits assumed): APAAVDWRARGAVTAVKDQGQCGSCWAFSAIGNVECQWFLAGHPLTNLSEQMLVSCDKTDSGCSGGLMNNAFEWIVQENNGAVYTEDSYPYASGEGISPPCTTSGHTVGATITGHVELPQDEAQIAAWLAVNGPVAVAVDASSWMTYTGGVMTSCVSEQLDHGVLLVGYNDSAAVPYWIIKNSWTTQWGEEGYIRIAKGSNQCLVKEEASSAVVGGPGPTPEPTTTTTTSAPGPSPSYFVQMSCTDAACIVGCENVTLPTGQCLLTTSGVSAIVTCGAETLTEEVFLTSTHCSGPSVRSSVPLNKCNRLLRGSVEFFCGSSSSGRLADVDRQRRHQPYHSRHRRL
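Detergent-containing arm of a paired screen for aggregation-based inhibition: 0.01% Triton X-100 present. Cruzain at 1.5 nM cleaved 2 uM Z-FR-AMC at pH 5.5 with 5 mM DTT; AMC fluorescence gain over 60 s measured activity.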
Lassa entry inh: inhibitors of Lassa virus binding or cell entry. Lassa virus pseudotype entry inhibition, cell reporter; control for the full effect not named in the record. actives 1.2% (n = 300,000). Potency, µM (titrated, usually from 37.9 µM), without a hit: top-dose activity change, negative = inhibition, actives largely listed as inhibitors; active means well fitted inhibition curve with a large enough effect; inconclusive means small, poorly fitted or top-dose-only effect, or effect the other way; inactive means flat fitted curve, though single readings scatter; tested in HEK293 cells; also: % is scaled to controls: 0 for no effect and ±100 for the full control effect; nearly all actives have a fitted effect of over 50% in size; luciferase read-out
2A StopGo: lowers the luciferase signal of an FMDV 2A StopGo reporter; Potency, µM (titrated, usually from 57.9 µM), inactives show top-dose signal change, negative = less light; actives 1.2% (n = 410,000); human cells with a luciferase reporter of 2A StopGo recoding; control for the full effect not named in the record; active = well fitted falling curve with a large enough effect; inconclusive = small, poorly fitted or top-dose-only effect; inactive = no such curve, though single readings can be large or run the other way; tested in HEK293T cells; also: % is scaled to controls: 0 for no effect and ±100 for the full control effect; nearly all actives have a fitted effect of over 45% in size; luciferase light after 4 h
SARS PLP yeast: inhibitors of SARS-CoV papain-like protease in yeast | Potency, µM (titrated, usually from 32.9 µM), for inactives: at the top dose activity, positive = growth rescue | S. cerevisiae expressing SARS-CoV PLpro, growth rescue; control for the full effect not named in the record | AID 485353 | actives 0.19% (n = 330,000); active means well fitted rising curve with a large enough effect; inconclusive means small, poorly fitted or top-dose-only effect; inactive means no such curve, though single readings can be large or run the other way; also: 0% is about no effect; nearly all actives have a fitted effect of over 55% in size; growth read by luminescence after 48 h
NS1 inh: inhibitors of influenza NS1 protein function; S. cerevisiae slowed by influenza A NS1, growth recovery by OD600; Potency, µM (top dose mostly 46.1 µM), for the others: top-dose activity, positive = more growth; actives 0.4% (n = 270,000); active means well fitted rising curve with a large enough effect; inconclusive means small, poorly fitted or top-dose-only effect; inactive means no such curve, though single readings can be large or run the other way; also: nearly all actives have a fitted effect of over 50% in size
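Growth recovery, yeast-based: influenza A NS1 expressed in S. cerevisiae causes slow growth, and suppressors are detected by OD600. The parent strain without NS1 is used as positive control.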
Marburg entry inh: inhibitors of Marburg virus binding or cell entry. actives 1.8% (n = 300,000). Potency, µM (doses to about 37.8 µM), without a hit: at the top dose activity change, negative = inhibition, hits mostly inhibitors. Marburg virus pseudotyped entry inhibition, cell reporter; control for the full effect not named in the record; about a third of the inactives were read at about 46 µM; active = well fitted inhibition curve with a large enough effect; inconclusive = small, poorly fitted or top-dose-only effect, or effect the other way; inactive = flat fitted curve, though single readings scatter; tested in HEK293 cells; about a fifth of its hits are not listed in these tables; also: % is scaled to controls: 0 for no effect and ±100 for the full control effect; luciferase read-out
Cruzain inh noDet: blocks cruzain activity in detergent-free assay; purified cruzain, Z-FR-AMC fluorescence, no detergent; actives 2.3% (n = 200,000); Potency, µM, without a hit: max response, negative = inhibition, hits mostly inhibitors; P25779;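 also: plate controls were enzyme without inhibitor for no effect and buffer without enzyme for full effect; nearly all actives have a fitted effect of over 40% in size; top concentration of the series not given in the record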
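Detergent-free condition (0.00005% Triton X-100) in acetate buffer pH 5.5 with DTT. 1.5 nM enzyme and compound were pre-mixed 15 min, then 2 uM Z-FR-AMC substrate added; reaction progress from fluorescence change between first and third reads (60 s).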
* = called active by the depositor; ? = inconclusive; . = no result given; & = joins results of further samples; [ ] = remark or other dose. Unless noted, calls follow the shape of the dose curve; as a rule, active = well fitted curve in the direction sought with a large enough effect; inconclusive = small, poorly fitted or top-dose-only effect, or another doubt; inactive = no such curve, though single readings can be large; an effect the other way counts as inactive or inconclusive. Potency is read from the fitted curve at half-maximal effect.

SMILES	RE007 growth inh	Cruzain Triton	Lassa entry inh	2A StopGo	SARS PLP yeast	NS1 inh	Marburg entry inh	Cruzain inh noDet
O=C(CCn1nc(-c2ccccc2)c2ccccc2c1=O)Nc1ccccc1	.	-2.1%	-13%[46.1 µM]	-3%	.	.	-2%[46.1 µM]	2%
Cc1cc(C)c(C)c(S(=O)(=O)N2CCN(C(=O)c3ccc4c(=O)n5c(nc4c3)CCC5)CC2)c1C	-1%	.	-15%	-25%	-3%	.	-14%	.
O=C(Cn1nc2c(cc1=O)CCCC2)NCc1ccc(Cl)cc1	.	-0.6%	-3%[46.1 µM]	4%	.	.	.	3%
O=C(c1ccc(S(=O)(=O)NCc2ccco2)cc1)N1CCN(Cc2ccccc2)CC1	22%	.	?	-16%	-5%	-2%	11%[46.1 µM]	.
COCCN1C(=O)c2ccc(C(=O)Nc3nccs3)cc2C1=O	-10%	-3.4%	1%	.	10%	-5%	19%	2%
CC(=O)N1CCN(Cc2nc(-c3cccc(Cl)c3)no2)CC1	12%	.	14%[46.1 µM]	3%	1%	-1%	-10%[46.1 µM]	.
COc1ccc(C2/C(=C(\O)c3ccc(OC)c(Cl)c3)C(=O)C(=O)N2CCN(C)C)cc1 (stereo not drawn)	12%	-2.8%	2%	13%	-1%	-4%	1%	-8%
CCc1nn(CC(=O)NCCCN(CC(C)C)CC(C)C)c(=O)c2cc3sc(C)cc3n12	.	1.5%	.	-2%	.	.	12%[46.1 µM]	9%
Cn1cc(C(=O)C(=O)N2CCCc3ccccc32)c2ccccc21	?	.	?	41%[activator]	4%	.	?	.
CC(C)OCCCN(C)C1CCN(S(=O)(=O)c2ccc(-c3ccc(=O)[nH]n3)s2)CC1	-4%	.	15%[46.1 µM]	-10%	3%	3%	1%[46.1 µM]	.
N#Cc1ccccc1OCCn1cncn1	-5%	.	.	7%	0%	12%	.	.
C[C@@H]1NC(=O)[C@H](CCC(N)=O)NC(=O)c2cc([N+](=O)[O-])cc(I)c2NCCC[C@@H](C(N)=O)NC1=O	2%	-12%	4%	4%	7%	?	2%	0%
OC(c1ccccn1)c1c[nH]c2ccccc12 (stereo not drawn)	-15%	5.2%	4%	3%	-4%	?	18%	5%
CCCCN(C(=O)c1ccc(Cl)c([N+](=O)[O-])c1)c1c(N)n(CCC)c(=O)[nH]c1=O	2%	.	2%	0%	2%	0%	18%[46.1 µM]	.
COC(=O)c1ccc(C(=O)N2CCCC(Nc3ccc(C(C)C)cc3)C2)cc1 (stereo not drawn)	-4%	.	.	1%	-2%	1%	.	.
C=CCn1c(SCC(C)=O)nc2scc(-c3ccc(C)o3)c2c1=O	2%	.	-12%	75%[activator]	.	8%	24%	.
CN1c2ccc([N+](=O)[O-])cc2N(C)C1(C)c1ccccc1 (stereo not drawn)	3%	.	-17%[46.1 µM]	0%	1%	12%	?	.
O=C(NC1CCCCC1)c1cc(C(=O)c2ccccc2Br)c[nH]1	-5%	.	.	17%	-1%	-1%	.	.
O=C(Nc1nccs1)c1cccnc1	-8%	.	2%	-2%	2%	1%	17%	.
O=S(=O)(Nc1ccc(N2CCCCC2)cc1)c1cccs1	-8%	-1.6%	-3%	.	-1%	-4%	-1%	-13%
COc1ccc(C(C)(C)C)cc1NC(=O)C1CC=CCC1C(=O)O (stereo not drawn)	-5%	2.5%	-7%	-2%	-2%	13%	13%	-3%
NS(=O)(=O)c1ccc(CCNC(=O)COC(=O)C2CCC2)cc1	-8%	.	17%[46.1 µM]	0%	14%	4%	16%[46.1 µM]	.
O=C(O)Cc1sc(Nc2ccccc2Cl)nc1-c1ccccc1	.	-6.3%	?	32%[activator]	.	.	28%[46.1 µM]	-20%
Cc1ccc(-c2cc(=O)c3cc(C)ccc3[nH]2)cc1	-27%	-0.8%&0.4%	15µM*	-45%	4%	6%	8.2µM*	-2%&-2%
O=C(NCCSCc1ccccc1)c1cc(S(=O)(=O)N2CCOCC2)ccc1F	-15%	-1.5%	.	0%	3%	-4%	2%	?
SMILES	RE007 growth inh	Cruzain Triton	Lassa entry inh	2A StopGo	SARS PLP yeast	NS1 inh	Marburg entry inh	Cruzain inh noDet
CCOC(=O)N1CCN(C(=O)Cc2ccc(C)cc2)CC1	6%	-0.5%	?	.	-3%	-16%[9.22 µM]	-3%	2%
CC1(C)C(=O)NCCN1C(=O)CSc1nccc(-c2ccc(Br)cc2)n1	8%	-0.5%	?	?	2%	-9%	-15%	9%
O=C(CCc1nc2ccccc2c(=O)[nH]1)OCC(=O)c1cccc(Cl)c1	0%	1.0%	22%	-8%	-1%	0%	-18%	-4%
COc1cccc(NC(=O)C2CCCN(c3ncnc4c3nc3n4CCCCC3)C2)c1 (stereo not drawn)	4%	.	3%[46.1 µM]	-20%	-2%	-20%	?	.
CCOc1ccc(S(=O)(=O)NCC(c2ccc(N(C)C)cc2)N2CCc3ccccc32)cc1 (stereo not drawn)	.	-4.6%	-2%[46.1 µM]	29%	.	.	.	?
CCCCCCNC(=O)Cc1ccc(Br)cc1	1%	.	?	7%	-3%	-3%	-1%[46.1 µM]	.
COc1ccc(/C=N/NS(=O)(=O)c2ccc(F)cc2)cc1COc1cc(F)ccc1[N+](=O)[O-]	7%	.	-17%[46.1 µM]	-15%	0%	.	-23%[46.1 µM]	.
Cc1ccc2cc(C3CC(c4ccco4)=NN3S(=O)(=O)c3ccccc3)c(Cl)nc2c1 (stereo not drawn)	35%	0.0%	16µM*	-11%	27%	?	2.6µM*	?
CCCCCNC(=O)Cc1cc(=O)[nH]c(=O)[nH]1	7%	-0.2%	.	-21%	4%	8%	5%	-8%
N#CCc1nc(CSc2nc3ccccc3s2)cs1	4%	-3.1%	24%	70%[activator]	0%	18%	1%	-11%
CCOC(=O)CSc1nnc(NC(=O)c2cccc(S(=O)(=O)N3CCCCC3)c2)s1	-10%	3.2%	12%	.	5%	2%	2%&3%	20µM*
O=C(OCCN1C(=O)c2ccccc2C1=O)c1cc2ccccc2o1	-10%	-0.7%	10%	-9%	7%	-9%	6%	1%
Cc1cccc(NC(=O)/C(C#N)=C/c2ccc(Cl)cc2)n1	4%	.	.	38%[activator]	1%	9%	.	.
CC1CCc2nc3ncn(Cc4ccccc4F)c(=O)c3cc2C1 (stereo not drawn)	.	-3.3%	?	51%[activator]	.	.	.	-2%
CN(CC(=O)Nc1ccc(N2CCOCC2)cc1)C(=O)C1CCCC1	-10%	.	0%[46.1 µM]	-10%	0%	.	-8%[46.1 µM]	.
Cc1noc(C)c1COc1cccc(C(=O)NC(C)(C)C)c1	-20%	.	.	-1%	2%	3%	.	.
Nc1cccc(Nc2ccccc2)c1	-4%	.	24%[46.1 µM]	-2%	1%	11%	5%[46.1 µM]	.
CSc1ccccc1NC(=O)c1c(C)noc1C	-14%	3.5%	1%	-7%	0%	-7%	-10%	-2%
CSCCC(NC(=O)c1ccccc1Cl)C(=O)OCC(=O)N1CCCC1=O (stereo not drawn)	-6%	.	-6%[46.1 µM]	20%	0%	.	1%	.
COc1ccc2c(c1)c1c(c(=O)n(-c3ccccc3C)c(=O)n1Cc1c(F)cccc1Cl)n2C	.	-2.3%	14%[46.1 µM]	-10%	.	.	.	-3%
O=c1[nH]c(=O)c2nnc(N/N=C/c3ccccc3F)nc2[nH]1	-19%	.	.	-5%	-3%	-3%	.	.
CC1CCN(CCC(=O)Nc2ccc3c(c2)CCC3)CC1	-16%	2.5%	3%	.	6%	-1%	-26%	0%
O=C(CCCN1C(=O)c2cccnc2C1=O)Nc1ccc(Br)cc1	-3%	.	.	-3%	-2%	2%	-7%[46.1 µM]	.
O=C(COc1ccc(S(=O)(=O)NCc2ccccc2)cc1)NCc1cccnc1	12%	.	.	9%	-15%	5%	12%[46.1 µM]	.
O=C(c1ccc(Cl)c(S(=O)(=O)N2CCCCCC2)c1)N1CCN(c2ccccc2O)CC1	4%	.	?	-27%	-2%	9%	?	.
SMILES	RE007 growth inh	Cruzain Triton	Lassa entry inh	2A StopGo	SARS PLP yeast	NS1 inh	Marburg entry inh	Cruzain inh noDet
COC(=O)C1=C(C)NC(C)=C(C(=O)OC)C1C(=O)OCC(=O)c1ccc(F)cc1	4%	.	8%	-10%	1%	-2%	2%	.
Cc1ccc(-n2cc(CNCCN3CCOC3=O)c(-c3ccc(F)cc3)n2)cc1	-15%	.	-29%	19%	-1%	7%	-17%[46.1 µM]	.
COC(=O)C1=C(C)NC(=O)C1(Nc1ccc(Cl)cn1)C(F)(F)F (stereo not drawn)	4%	1.9%	?	6%	2%	2%	-12%	-9%
CCOc1cc(/C=C/C(=O)c2ccc(C)cc2)ccc1OCC(=O)N(C)C	-23%	-11%	?	?	2%	-12%	?	?
CC(=O)N=Nc1[nH]c(N)c2ccccc12	-19%	.	2%[46.1 µM]	-2%	0%	.	21%[46.1 µM]	.
CCN(CC)S(=O)(=O)c1ccc2c(c1)nc(CN(C)C(=O)Nc1ccc(C)c(F)c1)n2C	.	-0.8%	18%[46.1 µM]	-21%	.	.	.	?
COC(=O)C1(Cc2ccc(O)c(CC3OC3(C)C)c2)OC(=O)C(O)=C1c1ccc(O)cc1 (stereo not drawn)	7%	.	.	0%	-2%	-2%	.	.
O=C(NCCc1c[nH]c2ccccc12)C(F)(F)F	10%	0.9%	16%	-8%	-3%	?	-3%[46.1 µM]	6%
CCN1CNC(=S)N(c2ccccc2C)C1	-9%	.	.	-5%	1%	1%	.	.
CCCC(c1nnnn1CC1CCCO1)N1CCN(c2nc3ccccc3s2)CC1 (stereo not drawn)	2%	-8.8%	?	-18%	7%	4%[9.22 µM]	?	?
Nn1c(SCc2ccc(F)cc2)nnc1-c1ccncc1	-3%	.	6%	3%	0%	0%	22%[46.1 µM]	.
O=C(NCc1cccs1)C12CC3CC(CC(C3)C1)C2	26%	.	14%	3%	-1%	.	1%[46.1 µM]	.
